Assay outcomes deposited in PubChem by several laboratories.
HNF4A DNA FP = change in binding of human HNF4A to DNA, primary screen, biochemical, fluorescence polarization, FITC-DNA | Hepatocyte nuclear factor 4-alpha (Homo sapiens), P41235 | 1 h | activity change, % at 10 µM | 360,000 tested, 0.3% active | AID 1224865, 2016; in the data active means activity change above about 30%, passing the limit was not always enough;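 further: controls were the assay level and a saturating level of protein; the project sought stronger binding though the title names inhibitors; some compounds called inactive have numbers as strong as hits; positive values seem to mean higher polarization but the record does not say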
UCH37 DUB inh = inhibitors of human UCH37 deubiquitinase, primary screen, biochemical, Ub-AMC cleavage, fluorescence; Ubiquitin carboxyl-terminal hydrolase isozyme L5 (Homo sapiens), Q9Y5K5; 330,000 tested, 0.33% active; purified proteasome/UCH37; inhibition, % (concentration not given with the values); AID 588478, 2011;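 active means mean of two replicates above 20%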;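 further: 0% = compound-free wells with enzyme and 100% = wells lacking proteasome; stock transfer was 100 nL into about 20 µL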
Target sequence (Q9Y5K5 whole entry, looked up): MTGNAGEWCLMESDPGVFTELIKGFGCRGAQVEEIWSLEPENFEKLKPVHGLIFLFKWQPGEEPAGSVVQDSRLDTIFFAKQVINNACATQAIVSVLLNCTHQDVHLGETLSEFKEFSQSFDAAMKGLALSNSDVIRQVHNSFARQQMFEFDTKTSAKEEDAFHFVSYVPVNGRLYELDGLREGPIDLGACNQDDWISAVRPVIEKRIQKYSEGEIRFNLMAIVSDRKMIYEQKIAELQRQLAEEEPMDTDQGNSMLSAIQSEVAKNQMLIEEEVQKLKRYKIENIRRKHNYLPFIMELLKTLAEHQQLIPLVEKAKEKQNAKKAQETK
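Assay system: Proteasome-bound UCH37. Buffer or medium: pH 7.4 Tris-HCl (50 mM) with ovalbumin, ATP-MgCl2, DTT. Incubation: 30 min preincubation with enzyme, 25 min cleavage at room temperature. Measured by: fluorescence, ex 355 nm, em 460 nm. Read-out basis: percent inhibition. Control set: wells without proteasome as full block, compound-free enzyme plus substrate as uninhibited.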
E coli growth = E. coli growth inhibition, primary screen, OD600; Escherichia coli growth, 23 h; active compounds read low; OD600 absorbance (test concentration not listed); 330,000 tested, 0.21% active;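 active means OD600 absorbance below the run mean of sample wells minus 3.6 SD, in any replicate, cut at about 0.56 in these data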;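 further: stock transfer was 300 nL into about 60 µL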
A1 inh = caspase 3/7 activation in MEF A1-2A-BIM cells, primary screen, A1 inhibitor project, cell-based, luminescence, HTS; AID 2462, 2010; caspase activation, % (concentration not given with the values); 330,000 tested, 0.066% active; Caspase-Glo 3/7 luminescence, 3 h; percent of clofoctol response, vehicle zero;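 active means over half of replicate activation scores above 10%, or exactly half above 10 with the replicate mean above 10; inconclusive means replicate mean below 10 yet half the replicates above 10; inactive means over half of replicates below 10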;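 further: wells of about 30 µL received 50 nL stock; many hits fall short of the cut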
LANA-H2A inh = blockers of LANA interaction with H2A/H2B – biochemical, FP readout, HTS, primary screen | cell-free LANA-H2A/H2B peptide, fluorescence polarization | inhibition, % (concentration not given with the values) | 320,000 tested, 0.6% active | AID 2629, 2010; in the data active means inhibition mostly above about 10%, no sharp cut-off; inactive means mostly below about 6.7%;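 further: stock transfer was 7.5 nL into about 10 µL; 0% = median of vehicle wells and 100% = median of positive control wells; one replicate is shown; the record names a cut of 25% in any replicate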
Vif A3G = inhibitors of Vif binding to APOBEC3G peptide, primary screen, biochemical, TR-FRET, GST-Vif 1-94, biotin-A3G peptide, dose response retest (AID 1117319). Virion infectivity factor (Human immunodeficiency virus type 1 group M subtype B (isolate …. TR-FRET GST-Vif / biotin-A3G peptide binding; higher % means a stronger effect; test concentration not given here; strong numbers were not always called active. inhibition, %; hits with a dose series show IC50 in µM. 260,000 tested, 0.57% active;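 active means above the screen mean plus three standard deviations and confirmed in dose response; inconclusive means results disagree or hit not tested in dose response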;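 further: Vif residues 1-94 fused to GST binding biotinylated APOBEC3G peptide 110-148; 0% = full assay without inhibitor and 100% = GST in place of GST-Vif; retest series ran down from 100 µM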
Beta2AR agonist = beta2AR agonists driving receptor internalization, primary screen, cell-based, FAP fluorogen, flow cytometry; Beta-2 adrenergic receptor (Homo sapiens), P07550; Am2.2-beta2AR cells; reference of the scale not given here; response, % (concentration not given with the values); 340,000 tested, 0.43% active; AID 504454, 2011;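 active means response above a set limit, near 3 SD of response in nonfluorescent compounds, cut at about 42% in these data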;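 further: stock transfer was 100 nL into about 11 µL; a reference agonist was the positive control; negative values mostly stem from fluorescent compounds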
Target sequence (P07550 whole entry, looked up): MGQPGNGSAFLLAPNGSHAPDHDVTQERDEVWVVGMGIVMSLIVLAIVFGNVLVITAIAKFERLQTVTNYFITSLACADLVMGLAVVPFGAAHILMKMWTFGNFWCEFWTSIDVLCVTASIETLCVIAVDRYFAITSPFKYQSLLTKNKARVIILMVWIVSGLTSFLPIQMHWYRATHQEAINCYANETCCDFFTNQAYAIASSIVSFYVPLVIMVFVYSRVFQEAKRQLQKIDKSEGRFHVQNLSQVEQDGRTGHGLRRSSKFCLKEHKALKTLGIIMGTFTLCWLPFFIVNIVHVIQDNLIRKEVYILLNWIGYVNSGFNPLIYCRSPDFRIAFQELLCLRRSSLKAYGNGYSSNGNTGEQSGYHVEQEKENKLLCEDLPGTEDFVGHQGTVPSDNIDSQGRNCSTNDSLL
Starred values were filed as active, the others as inactive; ? = inconclusive; · = no result given. Compounds were not picked by outcome, and some 2.1% of all compounds hit somewhere here.

SMILES	HNF4A DNA FP	UCH37 DUB inh	E coli growth	A1 inh	LANA-H2A inh	Vif A3G	Beta2AR agonist
CCn1c(/N=C/c2ccccc2O)nc2ccccc21	2.5	·	·	1.2	-1.7	2%	5
NC(=O)C1CCCN(C(=O)c2ccc(Cl)cc2)C1 (stereo not given)	3.2	3.5	0.72	-0.5	-6.1	4%	3
CCOC(=O)c1ccc(NC(=O)CSc2nnc(CNC(=O)c3ccco3)o2)cc1	-6.7	0.8	0.64	0.0	2.7	·	6
Cn1c(-c2cccc([N+](=O)[O-])c2)cnc1NCc1cccc([N+](=O)[O-])c1	-3.8	3.8	0.68	1.0	-5.4	5%	-5
O=C(Nc1ccccc1C(F)(F)F)c1cc(-c2ccc(O)cc2)on1	0.1	4.0	0.67	?	-2.4	64%	11
Cc1ccc(-n2nc3c(=O)n(CCCC(=O)N4CCC(C)CC4)nc(C)c3c2C)cc1	-0.1	1.4	0.65	0.8	-2.0	·	-7
COc1cccc(-c2c(C#N)c(N)nc3c2c(C)nn3-c2ccccc2)c1O	4.1	-51	0.66	-0.5	-1.8	3%	7
COCCCNC(=O)C1CCCN(S(C)(=O)=O)C1 (stereo not given)	-2.8	4.3	0.72	0.0	13	4%	-108
Nn1c(Cc2cccc3ccccc23)nnc1SC1CCOC1=O (stereo not given)	0.6	-0.1	0.71	1.3	-1.1	7%	-1
Cc1cccc(CC(=O)NCCN2CCCCC2)c1	-4.2	-5.7	0.64	0.7	-5.6	·	0
CCCC(=O)Nc1sc(C)c(-c2ccc(C(C)CC)cc2)c1C#N (stereo not given)	1.6	-3.1	0.73	-0.3	1.4	-2%	3
COc1ccc(-n2c(=O)c3c4c(sc3n3c(=S)[nH]nc23)CCCC4)cc1	0.1	-1.3	0.71	0.2	-2.5	·	-16
Cc1ccc(S(=O)(=O)Nc2ccccc2F)cc1C(=O)NNC(=O)c1ccccc1O	-1.7	3.4	0.69	2.7	-2.1	3%	-1
COc1cccc(-c2sc3ccc(OC)cc3c2-c2ccc(OCCN3CCCCC3)cc2)c1	-0.7	-3.3	0.64	·	·	-12%	13
CCOc1cc(C(=O)N2CCC(CC3CC(c4ccccc4)=NO3)(C(=O)NCc3ccc(OC)cc3)CC2)cc(OCC)c1OCC (stereo not given)	2.4	1.2	0.7	-0.5	-0.8	·	7
O=C1CC(c2ccc3ccccc3c2)NN1 (stereo not given)	0.9	1.0	0.76	-1.2	3.4	·	-4
O=C1CN(S(=O)(=O)c2cccc(Cl)c2Cl)c2ccccc2N1	2.8	0.5	0.7	-0.3	-13	·	46*
Cc1ccc(SC(CC(=O)c2ccc(C(C)(C)C)cc2)C(=O)O)cc1 (stereo not given)	1.6	2.9	·	-0.4	4.3	6%	12
CCOC(=O)c1cccc(Nc2nc(C)cc(C)n2)c1	4.5	-5.2	0.75	0.0	6.4	-6%	9
Cc1c(C(=O)NC(C)c2ccc(-n3ccnc3)cc2)cccc1[N+](=O)[O-] (stereo not given)	-3.8	-0.5	0.7	-0.3	1.0	·	-6
Cc1cc2ccccn2c1C(=O)c1ccc(Cl)cc1	1.6	-0.9	0.68	2.1	0.6	1%	·
CCOC(=O)C1=C(c2ccccc2)N=c2s/c(=C\c3cc(OC)c(OC)c(OC)c3)c(=O)n2C1c1cccs1 (stereo not given)	13	·	·	-0.1	0.5	6%	12
Cc1cccc2c3nc4ccccc4nc3n(C)c12	-3.3	-25	0.7	-1.0	-1.2	-3%	3
CC1CCCN(C(=O)CN2C(=O)c3ccccc3S2(=O)=O)C1 (stereo not given)	3.0	2.2	0.71	-0.2	·	-4%	-2
Cc1cc2nc(/C(C#N)=C\c3ccc(-c4ccccc4C(=O)O)o3)[nH]c2cc1C	148	19	0.7	-0.8	-7.4	4%	-2

Some of these compounds in order of their number in Beta2AR agonist, largest number first.
SMILES	Beta2AR agonist
O=C1CN(S(=O)(=O)c2cccc(Cl)c2Cl)c2ccccc2N1	46*
CCOC(=O)c1cccc(Nc2nc(C)cc(C)n2)c1	9
Cc1c(C(=O)NC(C)c2ccc(-n3ccnc3)cc2)cccc1[N+](=O)[O-] (stereo not given)	-6

Next records:
SMILES	HNF4A DNA FP	UCH37 DUB inh	E coli growth	A1 inh	LANA-H2A inh	Vif A3G	Beta2AR agonist
CCSc1nc2cc(S(=O)(=O)N3CCOCC3)ccc2o1	1.4	5.4	0.7	-0.3	-5.5	·	-2
O=C(Nc1ccc(-c2csc(Nc3ccc(Cl)cc3)n2)cc1)c1cccc(C(F)(F)F)c1	·	2.1	0.83	0.7	-1.7	·	·
CCOc1ccc(NC(=O)CSc2ccc3nnc(-c4cccnc4)n3n2)cc1	2.1	2.6	0.74	-0.1	1.8	·	10
Clc1ccc(OCCSCc2nc3ccccc3[nH]2)cc1	27	0.7	0.59	0.1	-3.8	0%	-9
O=C(NCc1ccccn1)c1cnc2sccn2c1=O	-2.0	-20	0.74	-0.6	-0.6	13%	4
Cc1cc(OCC(=O)NCCCN(C)C)cc(C)c1Br	1.6	1.9	0.76	0.3	-2.5	-13%	6
Cc1cc(Cl)c2oc(C(=O)N(C)C(C)c3ccccn3)c(C)c2c1 (stereo not given)	-2.4	5.3	0.7	1.2	-0.6	·	8
OC(COc1ccc(Br)cc1)Cn1ccnc1 (stereo not given)	5.5	-0.9	0.64	0.9	-4.8	·	-6
COc1ccc(C(=O)N(C)C2CCCCC2)cc1OC1CCN(C(C)C)CC1	-0.3	2.4	0.71	?	-2.1	18%	-4
Cc1ccc(CSc2ccc(C(=O)N3CCOCC3)cc2[N+](=O)[O-])cc1	3.1	0.4	0.69	0.0	1.9	-7%	1
NC(=O)CSC1=Nc2ccccc2C2=NC(c3ccccc3)C(=O)N12 (stereo not given)	-5.5	-35	0.62	-0.2	-0.8	-2%	3
CC(NC(=O)CN(c1ccc(F)cc1)S(C)(=O)=O)c1ccccc1 (stereo not given)	1.4	6.4	0.66	-0.9	-0.2	-1%	-3
CCOC(=O)C1(Cc2cccc(OC)c2)CCCN(CCO)C1 (stereo not given)	0.5	1.5	0.66	0.9	-10	·	-3
Cn1nc(-c2ccc(C(=O)Nc3ccc(F)cc3)cc2)c2ccccc2c1=O	1.0	5.3	0.64	-0.7	-4.1	-46%	4
COc1ccc(-c2nnc(SCc3ccccc3F)o2)cc1	1.0	1.1	0.69	-1.5	7.3	0%	-1
CN(C)S(=O)(=O)c1ccc(C(=O)NCC(=O)Nc2ccc(F)c(F)c2)cc1	-2.4	3.7	0.62	0.7	0.3	1%	0
CCOCC(=O)Nc1c(C(=O)Nc2ccc3c(c2)OCCO3)oc2ccccc12	3.7	-8.3	0.67	-0.2	-2.5	4%	9
CCCC1N2CC3([N+](=O)[O-])CN1CC([N+](=O)[O-])(C2)C3(C)C (stereo not given)	-3.3	0.6	0.64	-0.8	-2.4	18%	9
CCOC(=O)C1(C)C=C(Nc2ccccc2)C(=O)N1c1ccccc1 (stereo not given)	2.2	-6.3	0.72	0.1	5.1	-1%	4
O=C(CN1C(=O)COc2ccccc21)N(Cc1cccnc1)Cc1cccc(F)c1	-0.9	2.5	0.69	-0.3	-0.1	2%	-1
O=C(NCCS(=O)(=O)NCc1ccccc1)c1ccc2c(c1)OCO2	-1.6	0.9	0.66	-0.7	0.5	-3%	5
CSc1ccc(CN(C)C(C)C(=O)NCc2ccccc2)cc1 (stereo not given)	-3.7	2.9	0.72	0.2	5.4	-5%	-9
Cn1c(SCc2ccccn2)nnc1-c1ccncc1	4.9	3.6	0.66	0.6	-1.8	2%	13
COc1ccc(C)cc1NC(=O)CCN1CCN(C/C=C/c2ccccc2)CC1	-1.0	2.7	0.63	0.3	-5.2	7%	5
O=C(Nc1ccc2c(c1)OCO2)c1ccc([N+](=O)[O-])cc1[N+](=O)[O-]	-4.4	1.0	0.64	0.3	0.0	·	-3

Complete entries from above. Screens in order: HNF4A DNA FP | UCH37 DUB inh | E coli growth | A1 inh | LANA-H2A inh | Vif A3G | Beta2AR agonist
Profile of `OC(COc1ccc(Br)cc1)Cn1ccnc1` (stereo not given) : 5.5 | -0.9 | 0.64 | 0.9 | -4.8 | · | -6
Profile of `CN(C)S(=O)(=O)c1ccc(C(=O)NCC(=O)Nc2ccc(F)c(F)c2)cc1` : -2.4 | 3.7 | 0.62 | 0.7 | 0.3 | 1% | 0

(list continues)
SMILES	HNF4A DNA FP	UCH37 DUB inh	E coli growth	A1 inh	LANA-H2A inh	Vif A3G	Beta2AR agonist
COc1ccc(CN2CCC(CO)(Cc3ccccc3C(F)(F)F)CC2)c(F)c1	-2.7	3.1	0.63	0.6	-1.5	?	0
CNc1nc(=S)[nH]c2ccccc12	2.6	1.8	0.68	0.7	6.9	-20%	-3
COC(=O)c1cc(Cl)c(NC(=O)c2ccco2)cc1OC	0.2	3.5	0.7	0.2	1.1	0%	-1
O=C(Nc1ccc(S(=O)(=O)Nc2ncccn2)cc1)C12CC3CC(CC(C3)C1)C2	-1.2	4.1	0.71	0.3	-0.6	·	-1
N#CC(CCc1ccccc1[N+](=O)[O-])(CCc1ccccc1[N+](=O)[O-])C(N)=O	3.1	4.3	0.68	·	·	-2%	6
COCCn1c(Cc2cccn2C)nnc1SCC(=O)NCc1ccc2c(c1)OCO2	1.8	3.2	0.73	-0.9	15	·	3
CCCCSc1nnc(-c2ccc(C)cc2)c2ccccc12	-2.7	3.9	0.68	0.1	0.2	-39%	24
C=CCn1c(SCC(=O)c2ccc(O)c(O)c2)nnc1-c1cccnc1	-23	6.9	0.71	0.0	1.7	?	-16
Cc1ccccc1Nc1cc(C(=O)NCc2ccco2)c2ccccc2n1	-0.8	-5.8	0.67	0.8	-6.4	·	-1
COc1ccc(NS(=O)(=O)c2ccc(O)c(C(=O)OCC(=O)NC3CCCCC3)c2)cc1	-4.6	1.3	0.69	-0.8	0.8	6%	3
C[C@H]1CN=C(N(C)C)N1CC1CCCCC1	0.2	-1.8	0.72	0.7	-2.9	·	-1
CCOC(=O)N1CCN(C(=O)c2ccc3[nH]c(C)c(C)c3c2)CC1	9.5	-2.3	0.68	-0.2	2.0	·	-3
NS(=O)(=O)c1ccc(CNS(=O)(=O)c2cccc3nonc23)cc1	2.5	4.4	0.7	-1.0	-2.0	4%	-2
COc1ccc(N(CC(=O)NC(C)(C)C)C(=O)c2ccco2)cc1	0.6	-1.0	0.68	0.6	3.4	4%	-2
Cc1cccc(N(CC(O)CN2CCCC2)S(=O)(=O)c2ccccc2)c1 (stereo not given)	-4.4	2.4	0.71	0.2	8.1	·	1
COc1ccc(S(=O)(=O)N2CCCC2CNC(=O)C(=O)NC2CCCCCC2)cc1 (stereo not given)	-2.5	2.6	0.64	-0.2	-3.4	7%	-2
CCN(CC)S(=O)(=O)c1ccc2c(c1)nc(CCC(=O)O)n2CC	2.1	-0.6	0.64	1.7	3.6	-2%	-10
CCCOc1ccc(Cc2nn[nH]n2)cc1	0.2	-0.1	0.7	1.7	2.2	-3%	-6
CCOC(=O)c1ccc(NC(=O)NC2CC3CCC(C2)N3C(=S)NC)cc1 (stereo not given)	-0.4	5.9	0.72	0.0	1.2	-5%	1
CC(C)(C)C(=O)O/N=C(\N)c1ccc([N+](=O)[O-])s1	1.7	·	·	0.0	3.8	-6%	-3
